miR-21 reporter = raises the signal of a miR-21 reporter. 340,000 tested, under 10 active. AID 2288. Potency, µM (doses to about 38.3 µM), for the others: at the top dose reporter change, positive = more light. HeLa miR-21 FLuc reporter, luciferase, 48 h; active = well fitted rising curve with a large enough effect; inconclusive = small, poorly fitted or top-dose-only effect; inactive = no such curve, though single readings can be large or run the other way;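 further: % of control where 0% means no effect; miR-21 action dims this reporter so a rising signal means less miR-21 action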
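HeLa cells stably expressing CMV-driven firefly luciferase with a downstream miR-21 binding sequence, endogenously expressing miR-21, were treated with titrations (up to about 40uM final) for 48 hours at 37 degree Celsius. Luciferase luminescence was read after lysis.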
Active calls of the source: *; ? = inconclusive.

cpd	miR-21 reporter	Compound
1	-1%	COc1ccccc1-c1noc(-c2ccc(NCc3cccnc3)c([N+](=O)[O-])c2)n1
2	-17%	CC(NC(=O)c1ccc(Cn2c(SCc3ccccc3)nc3cccnc32)cc1)c1ccccc1 (stereo not drawn)
3	0%	CC1=Nc2cc(C(=O)N3CCC(C)CC3)ccc2Sc2ccc(Cl)cc21
4	21%	O=S(=O)(NCC(c1ccco1)N1CCN(c2ccccc2)CC1)c1cc(F)ccc1F (stereo not drawn)
5	-6%	Cc1ccc(Nc2nnc(-c3ccc(C)c(S(=O)(=O)N4CCOCC4)c3)c3ccccc23)c(C)c1
6	4%	COc1ccccc1C(=O)Nc1ccc(OCc2cc(=O)n3cc(C)sc3n2)cc1
7	-3%	CCC(=O)N1CCc2cc(S(=O)(=O)NC(Cc3ccccc3)C(=O)NCc3ccccc3)ccc21 (stereo not drawn)
8	-10%	COc1ccc(-n2ccnc(NCc3ccccc3OC)c2=O)cc1

By substructure, the entries above containing a halogen (two)
cpd	miR-21 reporter	Compound
3	0%	CC1=Nc2cc(C(=O)N3CCC(C)CC3)ccc2Sc2ccc(Cl)cc21
4	21%	O=S(=O)(NCC(c1ccco1)N1CCN(c2ccccc2)CC1)c1cc(F)ccc1F (stereo not drawn)

Continuation:
cpd	miR-21 reporter	Compound
9	1%	Cc1ccc(-c2noc(CSc3nnc(-c4ccc(Cl)cc4)n3C)n2)cc1
10	-3%	Cc1cc(C)c(NC(=O)Cn2c(=O)n(Cc3ccc4c(c3)OCO4)c(=O)c3ccccc32)c(C)c1
11	-1%	Cc1cccc(NC(=O)CN(C)S(=O)(=O)c2ccc3c(c2)CCC(=O)N3)c1C
12	0%	CCC(=O)N1c2ccccc2CC1C(=O)NCCN1CCN(c2ccccc2F)CC1 (stereo not drawn)
13	2%	CCN(CC)S(=O)(=O)c1ccc2c(c1)N(CC(=O)NCCCN1CCN(c3ccc(OC)cc3)CC1)C(=O)CO2
14	8%	CSc1ccc(CCNC(=O)CCc2c(C)nc3cc(-c4ccccc4)nn3c2C)cc1
15	-23%	Cc1ccc(C)c(N2CCN(S(=O)(=O)c3cn(C)c(C)n3)CC2)c1
16	3%	CCOC(=O)C1CCC(CN(Cc2ccc(OC)cc2)S(=O)(=O)c2ccc(F)c(C(=O)Nc3c(C)cccc3C)c2)CC1 (stereo not drawn)
17	5%	Cc1c(CNCCCc2ccccc2)c(C(=O)O)c(C)n1Cc1cccc(Cl)c1
18	-39%	Cc1ccc(-c2nc3nc(C)cc(C)n3c2Nc2ccc3c(c2)OCCO3)cc1
19	-4%	COc1ccc(Cn2c(CNC(=O)c3ccc(N(C)C)cc3)nc3cccnc32)cc1
20	?	CCCCOc1cccc(C(=O)Nc2cccc(-c3nc4ncccc4o3)c2C)c1
21	9%	COc1ccc(C(=O)N2CC(=O)Nc3ccc(Br)cc3C2c2ccc(F)cc2)cc1OC (stereo not drawn)
22	2%	COc1ccc(N2CCN(C(=O)C3Cc4ccccc4N3C(C)=O)CC2)cc1 (stereo not drawn)
23	2%	CC(C)c1ccc(-c2noc(SCC(=O)N3CCCCC3C)n2)cc1 (stereo not drawn)
24	-3%	CCn1c(CN2CCC(C)CC2)nc2cc(NC(=O)COc3ccc([N+](=O)[O-])cc3)ccc21
25	18%	COc1ccc(Cl)cc1NS(=O)(=O)c1cc(Br)cc2c1N(C(=O)C1CC1)CC2
26	-1%	O=C(c1ccco1)N(Cc1cccnc1)c1nc2c(F)cc(F)cc2s1
27	18%	COc1ccc(CCNCc2c(C(=O)O)c(C)n(Cc3c(F)cccc3Cl)c2C)cc1OC
28	1%	Cc1ccc(NC(=O)c2c(C)nn(-c3ccccc3)c2-n2cccc2)c(Cl)c1
29	-1%	Cc1ccc(Cl)cc1N1CCN(C(=O)Cn2ncc3c([nH]c4ccccc43)c2=O)CC1
30	-44%	O=C(O)c1ccc2nc(-c3cc4cc(F)ccc4oc3=O)[nH]c2c1
31	-12%	CCCNC(=O)c1cnc2sc(N3CCCCC3)nn2c1=O
32	-10%	COc1ccc(CC(=O)Nc2sc3c(c2C(=O)Nc2cccc(Cl)c2)CCCCC3)cc1
33	-6%	COc1ccc(N(C(=O)Cn2nnc3ccccc32)C(C(=O)NCc2ccccc2)c2ccc(F)cc2)cc1 (stereo not drawn)
34	11%	O=S(=O)(NCc1nc2cccnc2n1Cc1ccccc1Cl)c1ccc(F)c(Cl)c1
35	22%	Cc1nc2nncn2c(NCc2ccc(F)cc2)c1C
36	1%	O=C(Nc1ccc(Br)cc1F)C(NS(=O)(=O)c1cccc2nsnc12)c1ccccc1 (stereo not drawn)
37	-2%	COc1ccc(/C=C(\C#N)c2nc3ccccc3c(=O)[nH]2)cc1OC
38	29%	CCCCc1ccc(Nc2cc(C)nc(-n3nc(C)cc3C)n2)cc1
39	-2%	CCOCCc1nnc(NC(=O)C(=O)c2cc(C)n(-c3cccc(Cl)c3)c2C)s1
40	2%	CCOC(=O)C1CCN(C(=O)c2ccc3c(c2)sc2nc(-c4ccccc4)cn23)CC1
41	-2%	Cc1cc(O)c(C(=O)c2cnc3c(c2)COc2ccccc2-3)cc1Cl
42	-1%	COc1ccccc1CNC(=O)c1ccc(CSc2nc3ccncc3n2Cc2ccccc2C)cc1
43	2%	COc1cc(OC)c(NC(=O)c2cn(C3CCCC3)c(=O)c3c2c2ccccc2n3C)cc1Cl
44	-4%	CCCSc1nnc2c(n1)OC(c1ccc(OCC(=O)O)cc1)Nc1ccccc1-2 (stereo not drawn)
45	-4%	NC(=O)CSc1ncc2c(n1)-c1ccccc1N(Cc1ccccc1)S2(=O)=O
46	6%	CCC(C)NC(=O)c1cc2cc(S(=O)(=O)N3CCCCC3)ccc2n1C (stereo not drawn)
47	-9%	CC(C)c1ccc(NC(=O)CSc2ncnc3c2sc2ccccc23)cc1
48	0%	Cc1cc(C)c(NC(=O)CCn2c(=O)c3cccn3c3cccnc32)c(C)c1

Three entries already listed, sorted by SMILES length, low to high:
cpd	miR-21 reporter	Compound
47	-9%	CC(C)c1ccc(NC(=O)CSc2ncnc3c2sc2ccccc23)cc1
41	-2%	Cc1cc(O)c(C(=O)c2cnc3c(c2)COc2ccccc2-3)cc1Cl
45	-4%	NC(=O)CSc1ncc2c(n1)-c1ccccc1N(Cc1ccccc1)S2(=O)=O

(continued)
cpd	miR-21 reporter	Compound
49	4%	COc1ccccc1N1CCN(C(=O)c2cn(CC(C)C)c(=O)c3c2c2ccccc2n3C)CC1
50	-3%	CCOC(=O)c1c(-c2ccc(Br)cc2)csc1NC(=O)c1ccc(F)cc1
51	-1%	COc1ccccc1CNC(=O)CCCCn1c(=O)c2ccccc2n(Cc2ccccc2F)c1=O
52	1%	COc1cc(-c2nc(C(N)=O)c3c(n2)n(-c2cccc(C)c2)c(=O)n3C)cc(OC)c1OC
53	-20%	COc1ccc(Nc2nc(-c3ccc(C)cc3)nc3ccccc23)c(OC)c1
54	6%	Cc1cccc(Cn2c(CNS(=O)(=O)c3ccc4c(c3)CCCC4)nc3cccnc32)c1
55	8%	COc1ccc(N2CCN(C(=O)c3cc4ccc5cccnc5c4[nH]3)CC2)cc1
56	1%	COc1ccccc1CNC(=O)c1ccc(CS(=O)(=O)c2c(Cl)cccc2Cl)o1
57	-1%	CCOc1ccccc1NC(=O)c1cc2c(Cl)nc3ccccc3c2s1
58	4%	Cc1cccc(NC(=O)CSc2nc(=O)n(Cc3ccccn3)c3c2CCC3)c1C
59	12%	CCC(=O)N1c2ccccc2CC1C(=O)NCCN1CCN(c2cc(Cl)ccc2C)CC1 (stereo not drawn)
60	-10%	O=C(Nc1ccc(Br)cc1F)c1ncoc1-c1ccco1
61	-2%	Cc1ccc(C)c(NS(=O)(=O)c2ccc3c(c2)n(C)c(=O)n3C)c1
62	3%	O=C(CCCn1c(=O)c2cccn2c2cccnc21)Nc1ccccc1C(F)(F)F
63	-3%	COc1ccc(C(=O)N2CCC(C(=O)Nc3ccccc3Cl)CC2)cc1
64	-23%	COc1ccc(-c2nc3ccccc3o2)cc1NC(=O)c1cc([N+](=O)[O-])ccc1N1CCOCC1
65	22%	CCOC(=O)N1CCc2c(sc3c2C(=O)NC(c2cc(OC)c(OC)c(OC)c2)N3)C1 (stereo not drawn)
66	-1%	O=C(NCc1ccccc1)c1cccc(Nc2nc3ccccc3n3nnnc23)c1
67	4%	CCc1ccc(NC(=O)C(CC)n2c(=O)c(-c3ccccc3NC(C)=O)nc3ccccc32)cc1 (stereo not drawn)
68	-7%	COc1ccc(-n2c(=O)c3ccc(C(=O)NCc4ccc(C)cc4)cc3n(Cc3ccc(F)cc3Cl)c2=O)cc1
69	16%	CCOC(=O)c1cccc(NC(=O)c2cnc(N3CCCCC3)c3ccccc23)c1
70	2%	Cc1ccc(S(=O)(=O)Nc2cc(Cl)c3oc4c(c3c2)CCCC4)cc1
71	-14%	O=C(Cn1nc(-c2ccccc2)ccc1=O)NCc1ccc(F)cc1Cl
72	1%	COCCNC(=O)CSc1nc(-c2ccc(C)cc2)nc2c1c(=O)n(C)c(=O)n2C
73	3%	COC(=O)c1cc2sc(C)cc2n1CC(=O)Nc1cccc(SC)c1
74	-68%	CC1CCN(C(=O)c2ccc(NC(=O)c3nsc4ccccc34)cc2)CC1
75	-3%	O=C(CSc1nc2ccccc2n1Cc1ccc(F)c(Cl)c1)N1CCN(c2ccc(F)cc2)CC1
76	-2%	Cc1ccccc1NC(=O)CC1NCCNC1=O (stereo not drawn)
77	-3%	Cc1ccc(C)c(OCCn2c(-c3ccc(Cl)cc3)nc3ccccc3c2=O)c1C
78	-43%	CCOc1ccc(NC(=O)c2sc3ccccc3c2Cl)cc1
79	-3%	Cc1ccc(N2C(=O)CS(=O)(=O)C23C(=O)N(Cc2cccc(F)c2)c2ccccc23)cc1Cl (stereo not drawn)
80	-2%	COc1ccccc1OCCn1c(-c2ccc(Br)cc2)nc2ccccc2c1=O
81	-6%	Brc1ccc(CNCCCSc2nnnn2-c2ccccc2)cc1
82	1%	COc1cccc(CNC(=O)CSc2cc(C)[nH]c(=O)n2)c1
83	18%	COc1ccc(N2CCN(c3nc(-c4ccccc4F)nc4ccccc34)CC2)cc1
84	-5%	Cc1ccc(NC(=O)/C(C#N)=C/c2cc(C)n(-c3ccc(Br)cc3)c2C)cc1C
85	-12%	CCN1CCN(Cc2c(O)ccc3oc(C)c(C(=O)Nc4ccc(OC)c(Cl)c4)c23)CC1
86	-1%	Cc1ccc(Cn2c(C(=O)NCc3ccccc3Cl)cc3sccc32)cc1
87	-26%	Clc1ccc(-c2cn3cc(Cc4ccccc4)sc3n2)cc1
88	-39%	CCc1ccc(NC(=O)c2sc3nc(C)cc(C)c3c2NC(=O)c2ccccc2OC)cc1
89	7%	CNC(=O)c1ccc2c(c1)N=C(C)c1cc(C)ccc1S2
90	-3%	CCc1ccc(NC(=O)c2cc(S(=O)(=O)N3CCCC(C)C3)cn2C)cc1 (stereo not drawn)
91	1%	CCOC(=O)c1c(NC(=O)c2cc(=O)c3ccc(C)cc3o2)sc(C)c1C
92	-1%	CC(=O)N1c2ccc(S(=O)(=O)N3CCCCCC3)cc2CC1C(=O)NCc1cccc(F)c1 (stereo not drawn)
93	0%	Cc1ccc2nc(Nc3ccc(Br)cc3)nc(-c3ccccc3)c2c1
94	-35%	O=C(Cn1c(=O)n(-c2ccc(Cl)cc2)c(=O)c2oc3ccccc3c21)Nc1ccccc1
95	-10%	CC(C)OC(=O)C(C(=O)C(F)(F)F)c1cc(NS(=O)(=O)c2ccc3c4c(cccc24)C(=O)N3)ccc1O (stereo not drawn)
96	4%	CCOc1ccc(-c2nc(SCC(=O)NCCOC)c(-c3ccc(OC)c(OC)c3)[nH]2)cc1
97	4%	COc1ccc(CCNC(=O)C(=O)NCC(c2ccco2)S(=O)(=O)c2ccccc2)cc1 (stereo not drawn)
98	-12%	CCOc1ccc(OCC)c(NC(=O)C(NS(=O)(=O)c2ccc(Br)s2)c2ccccc2)c1 (stereo not drawn)
99	3%	CC(C)(C)c1ccc(C(=O)N2CCCCC2CCN2CCCCC2)cc1 (stereo not drawn)
100	-1%	CCc1cccc(CC)c1N(COC)C(=O)Cn1c(C)nc2ccccc21
101	-3%	CCOc1ccc(NC(=O)c2c(NC(=O)Cc3ccccc3)sc3c2CCCCC3)cc1
102	6%	CSc1ccccc1OCc1cc(C(=O)N2CCC(c3ccncc3)CC2)no1
103	-3%	CCOC(=O)c1cc2c(=O)n3ccccc3nc2n(CC2CCCO2)c1=NC(=O)c1ccc(F)cc1 (stereo not drawn)
104	-10%	COc1cccc(NC(=O)c2nn(-c3ccc(C)cc3)c(=O)n(C)c2=O)c1
105	5%	CC(C)Oc1ccc(CNC(=O)c2cccc(NC(=O)N3CCSc4ncccc43)c2)cc1
106	5%	Cc1ccc(CNC(=O)Cn2c(=O)n(Cc3ccccc3)c(=O)c3c2c2cc(C)ccc2n3C)cc1
107	?	COc1cccc(CNC(=O)c2cc(S(=O)(=O)N3CCCCC3)cn2C)c1

Gathered by group: the compounds so far containing two or more sulfur atoms.
cpd	miR-21 reporter	Compound
36	1%	O=C(Nc1ccc(Br)cc1F)C(NS(=O)(=O)c1cccc2nsnc12)c1ccccc1 (stereo not drawn)
45	-4%	NC(=O)CSc1ncc2c(n1)-c1ccccc1N(Cc1ccccc1)S2(=O)=O
47	-9%	CC(C)c1ccc(NC(=O)CSc2ncnc3c2sc2ccccc23)cc1
73	3%	COC(=O)c1cc2sc(C)cc2n1CC(=O)Nc1cccc(SC)c1
98	-12%	CCOc1ccc(OCC)c(NC(=O)C(NS(=O)(=O)c2ccc(Br)s2)c2ccccc2)c1 (stereo not drawn)

This is a subset. The share of hits here may be higher or lower than overall.
